# Compound activity (PubChem)
# FGF22 binding: binders of human FGF22 protein, primary screen, FGF22 synaptogenesis inhibitor project, biophysical, thermal shift, single point. recombinant FGF22 thermal shift, SYPRO orange fluorescence; percent of sucrose octasulfate shift, DMSO zero. calls only at 9.99 µM. 1.5% of 340,000 active. AID 651658, 2012;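 active means melting point raised past a set limit in the mean and every replicate; three in four hits are not shown here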
# Target sequence (Q9HCT0 whole entry, looked up): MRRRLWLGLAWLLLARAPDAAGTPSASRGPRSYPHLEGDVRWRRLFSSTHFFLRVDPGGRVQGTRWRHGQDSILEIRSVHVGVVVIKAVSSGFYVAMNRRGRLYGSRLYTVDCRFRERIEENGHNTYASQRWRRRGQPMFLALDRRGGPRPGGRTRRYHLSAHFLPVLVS
# ALR H2O2 inh: inhibitors of human ALR sulfhydryl oxidase, primary screen, biochemical, H2O2 detection, HRP-luminol luminescence, single point | 3.8% of 290,000 active | inhibition, % (test concentration not listed) | purified ALR, DTT oxidation | FAD-linked sulfhydryl oxidase ALR (Homo sapiens), P55789;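 active means mean and each replicate at 75% or more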;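 further: stock transfer was 7.5 nL into about 7.5 µL; 0% = neutral wells and 100% = wells with inactivated enzyme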
# Target sequence (P55789 whole entry, looked up): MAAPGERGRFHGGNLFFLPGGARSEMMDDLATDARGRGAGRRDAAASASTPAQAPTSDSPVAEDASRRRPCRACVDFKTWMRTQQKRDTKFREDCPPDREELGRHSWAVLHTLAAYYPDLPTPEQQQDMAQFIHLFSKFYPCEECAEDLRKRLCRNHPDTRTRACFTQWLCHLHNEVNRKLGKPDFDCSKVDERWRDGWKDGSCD
# B2AR ag: beta2AR agonists driving receptor internalization, primary screen, cell-based, FAP fluorogen, flow cytometry. Beta-2 adrenergic receptor (Homo sapiens), P07550. Am2.2-beta2AR cells; reference of the scale not given here. response, % (no concentration beside the values). 0.43% of 340,000 active;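 active means response above a set limit, near 3 SD of response in nonfluorescent compounds, cut at about 42% in these data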;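 further: stock transfer was 100 nL into about 11 µL; a reference agonist was the positive control; negative values mostly stem from fluorescent compounds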
# UCH37 DUB inh: inhibitors of human UCH37 deubiquitinase, primary screen, biochemical, Ub-AMC cleavage, fluorescence | purified proteasome/UCH37 | Ubiquitin carboxyl-terminal hydrolase isozyme L5 (Homo sapiens), Q9Y5K5 | 0.33% of 330,000 active | inhibition, % (test concentration not listed);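 active means mean of two replicates above 20%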;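 further: 0% = compound-free wells with enzyme and 100% = wells lacking proteasome; stock transfer was 100 nL into about 20 µL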
#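 System: Proteasome-associated human UCH37 deubiquitinase; Input: 0.15 nM proteasome in added enzyme buffer; Also added: Ub-AMC substrate from 1 µM stock; Incubation: 30 min compound-proteasome preincubation then 25 min substrate reaction, room temperature; Detection: fluorescence, ex 355 nm, em 460 nm; Read-out: % inhibition of Ub-AMC cleavage fluorescence; Benchmarks: no-proteasome and no-compound wells.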
# Ecoli rRNA inh: reduced GFP signal of wild-type E. coli, primary screen, bacterial rRNA inhibitor project, GFP/RFP fluorescence, OD600, single point | GFP signal change (wild-type ribosome), % (test concentration not listed) | 1.6% of 350,000 active | AID 720706, 2013 | E. coli WT GFP vs humanized-ribosome RFP mutants, 24 h; stronger effect = lower value; DMSO median 0, no signal -100;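 active means significant combined selectivity score with lowered wild-type GFP, culture density cut under 30%, mutant RFP and density less affected; inactive means any of these conditions unmet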; further: one replicate is shown; some compounds called inactive have numbers as strong as hits
# Ecoli growth: E. coli growth inhibition, primary screen, OD600; OD600 absorbance (no concentration beside the values); 0.21% of 330,000 active; AID 1053175, 2014; Escherichia coli growth, 23 h; stronger effect = lower value;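 active means OD600 absorbance below the run mean of sample wells minus 3.6 SD, in any replicate, cut at about 0.56 in these data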;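 further: stock transfer was 300 nL into about 60 µL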
# HNF4A DNA FP: change in binding of human HNF4A to DNA, primary screen, biochemical, fluorescence polarization, FITC-DNA; Hepatocyte nuclear factor 4-alpha (Homo sapiens), P41235; activity change, % at 10 µM; AID 1224865, 2016; 0.3% of 360,000 active; 1 h; in the data active means activity change above about 30%, passing the limit was not always enough;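 further: controls were the assay level and a saturating level of protein; the project sought stronger binding though the title names inhibitors; some compounds called inactive have numbers as strong as hits; positive values seem to mean higher polarization but the record does not say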
# Target sequence (P41235 whole entry, looked up): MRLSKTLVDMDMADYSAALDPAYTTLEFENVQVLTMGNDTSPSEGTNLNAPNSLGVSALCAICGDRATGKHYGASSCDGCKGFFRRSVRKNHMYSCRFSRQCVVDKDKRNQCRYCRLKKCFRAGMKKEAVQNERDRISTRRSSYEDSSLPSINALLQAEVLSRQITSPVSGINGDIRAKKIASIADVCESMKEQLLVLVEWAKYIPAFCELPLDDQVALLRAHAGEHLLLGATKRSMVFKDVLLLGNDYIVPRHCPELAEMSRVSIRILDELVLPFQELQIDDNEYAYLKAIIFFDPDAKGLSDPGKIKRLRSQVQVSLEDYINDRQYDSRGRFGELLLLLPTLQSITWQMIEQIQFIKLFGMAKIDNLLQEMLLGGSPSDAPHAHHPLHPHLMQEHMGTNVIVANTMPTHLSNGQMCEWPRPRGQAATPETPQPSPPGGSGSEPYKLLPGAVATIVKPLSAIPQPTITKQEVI
# Ecoli rRNA inh OD600: second read-out of Ecoli rRNA inh, no call of its own (marks repeat the call); OD600 change, %; measured here: OD600 growth;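 optical density of the mix in the first replicate; 0 = DMSO median and -100 = no signal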
# Ecoli rRNA inh RFP: also measured in Ecoli rRNA inh; calls as there; RFP signal change, %; measured here: RFP humanized mutant strains;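 first replicate; 0 = DMSO median and -100 = no signal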
# Numbers without * were called inactive; i = inactive; · = not tested or not shown. Some of the compounds tested (hit frequency here may not be typical).
SMILES,FGF22 binding,ALR H2O2 inh,B2AR ag,UCH37 DUB inh,Ecoli rRNA inh,Ecoli rRNA inh OD600,Ecoli rRNA inh RFP,Ecoli growth,HNF4A DNA FP
O=C(COC(=O)C1COc2ccccc2O1)NC1CCCCC1 (stereo unspecified),i,-9,0,2.6,10,17,-0.1,0.73,-2.6
CCCCOc1ccc(S(=O)(=O)Nc2cc(OC)ccc2OC)cc1,·,-1,-12,3.9,·,·,·,0.68,-2.2
O=C(CCC(=O)N(CC(=O)NC1CCCCC1)Cc1ccccc1)Nc1ccccn1,·,-2,5,1.6,15,16,0.5,0.67,-1.6
O=C(O)c1ccc(Nc2ccc([N+](=O)[O-])c3nonc23)cc1,i,4,-5,24*,15,7,0.2,0.67,4.5
COC(=O)c1cc(S(=O)(=O)N2CCOCC2)c(Cl)cc1N1CCOCC1,·,-11,9,6.4,·,·,·,0.69,1.9
Cc1cc(C)c(S(C)(=O)=O)c(S(=O)c2ccc(Cl)cc2)n1 (stereo unspecified),·,3,-7,-5.1,·,·,·,0.75,-5.7
COC(=O)Nc1ccc(S(=O)(=O)N2CCC(C(=O)N(C)C3CCCCC3)CC2)cc1,i,92*,0,0.1,-9,-10,2.4,0.72,-1.1
CC(=O)Nc1nnc(CCN2CCCCC2)s1,·,-28,14,1.6,·,·,·,0.66,-2.1
Cc1ccc(Oc2ccccc2/C=C2\SC(=O)N(C)C2=O)cc1,·,-6,-1,0.5,·,·,·,0.74,3.5
Cc1cc(C)n2c(Nc3c(C)cccc3C)c(-c3cccnc3)nc2n1,i,·,·,·,-4,3,-0.4,·,-3.9
CCCNC(=O)c1cc(C2CCCCN2C(=O)c2ccc3ccccc3c2)on1 (stereo unspecified),i,·,·,·,0,-2,4.4,·,1.2
CCOC(=O)c1sc(NC(=O)CCN2C(=O)c3cccc([N+](=O)[O-])c3C2=O)c(C(=O)OCC)c1C,·,-1,-1,3.3,·,·,·,0.71,7.6
COc1ccc(-c2noc(CSc3nc(N)cc(=O)[nH]3)n2)cc1,i,-9,9,-1.7,-10,-5,3.4,0.68,0.2
COc1cc(O)c(C(CCN2CCCC2)c2ccc3c(c2)OCO3)c(OC)c1 (stereo unspecified),i,·,-5,3.7,6,2,1.7,0.67,4.4
c1cc(Nc2ncnc3sccc23)cc(-c2nnc3n2CCCCC3)c1,·,9,-19,2.6,·,·,·,0.71,6.0
Cc1ccc(C)c(Cn2ncc3ccccc32)c1,i,-11,-5,0.0,-11,4,3.3,0.67,-5.1
Cn1cnc([N+](=O)[O-])c1NC(C)(C)C,·,-8,1,9.4,·,·,·,0.69,0.2
CCn1nnnc1-c1ccc(OC)c(S(=O)(=O)NCCc2ccccc2)c1,·,-28,-1,-1.0,·,·,·,0.72,4.0
COC(=O)c1cc(C(=O)OCC(=O)NC(=O)c2ccccc2)cc([N+](=O)[O-])c1,i,-73,-1,2.4,1,-2,-2.4,0.62,-0.1
Cc1cccc(C(=O)Nc2sc3c(c2C(=O)O)CCCC3)c1,i,22,3,0.6,-6,-19,-1.1,0.66,-1.9
COc1ccc(OCCCC(=O)Nc2cccc([N+](=O)[O-])c2)cc1,·,1,-1,5.8,·,·,·,0.67,-0.5
Cc1nn(Cc2ccccc2)c2c1C(c1ccc(Cl)cc1)C(C#N)=C(N)O2 (stereo unspecified),·,26,19,3.5,·,·,·,0.62,-0.7
OCCCNC(=S)Nc1ccc2nccnc2c1,i,-8,4,-4.4,11,7,-1.6,0.65,0.9
Cc1cc(C)n(-c2ccc(C)c(Cl)c2)n1,i,·,-1,2.7,2,-5,-4.3,0.69,-1.2
O=C(NCc1ccc(F)cc1)C1CCCN(c2nc3ccsc3c(=O)s2)C1 (stereo unspecified),i,6,-9,-54,15,5,-4.6,0.63,3.7
COc1ccc(S(=O)(=O)CCC(=O)N2CCN(c3ccc(F)cc3)CC2)cc1,i,·,2,0.9,-7,-11,-1.1,0.69,0.7
COc1ccc(NC(=O)NCc2ccncc2)cc1,·,-3,·,0.6,·,·,·,0.71,3.4
Cc1nc2ccccc2c(=O)n1NC(=O)C1CC1C (stereo unspecified),i,·,-9,2.5,7,-2,-3.7,0.69,-3.5
CCn1c(CNc2ccc(F)cc2)nnc1SCC(=O)Nc1ccc(OC)cc1,·,-9,5,3.7,·,·,·,0.68,-0.6
CCCn1c(SCC(=O)N(C)C2CCS(=O)(=O)C2)nc2sc3c(c2c1=O)CCC3 (stereo unspecified),i,0,-9,7.0,-3,-33,-7.9,0.71,3.7
CCOc1ncccc1C(=O)OCC(=O)Nc1cc(S(=O)(=O)N(CC)CC)ccc1C,i,-16,-3,4.5,-15,-14,-2.2,0.72,3.4
O=C(O)CCCCCN1C(=O)C(=O)/C(=C(/O)c2ccccc2)C1c1ccccc1 (stereo unspecified),·,·,-4,10,·,·,·,0.72,0.9
CC(=O)c1ccc(N2CCN(C(=O)c3n[nH]c4ccccc34)CC2)cc1,i,1,0,4.9,-4,-3,2.7,0.68,3.4
COc1ccc(N2CCN(c3ccc(NC(=O)C4CCCCC4)cc3C#N)CC2)cc1,·,-3,1,-28,·,·,·,0.81,-1.3
O=C(NCc1cccc(F)c1)c1noc2c1CCCC2,i,-4,-8,4.2,3,-6,-3.5,0.76,1.9
Cc1cc(C(=O)N2CCCC(C(=O)c3ccc4ccccc4c3)C2)nn1C (stereo unspecified),i,0,-1,-7.9,-23,-23,0.1,0.67,-2.5
Cc1cccc(S(=O)Cc2ccc(C(=O)NC3CCN(Cc4ccccc4)CC3)o2)c1 (stereo unspecified),i,-15,-7,0.8,3,-30,26,0.67,1.9
COc1ccc(CNc2oc(Cc3cccc4ccccc34)nc2C#N)cc1,·,-1,-2,0.9,·,·,·,0.67,0.8
Cc1c(C(=O)Nc2ccc(F)cc2)oc2ccc(S(=O)(=O)N3CCCC3)cc12,i,·,10,3.2,3,5,0.4,0.7,1.6
CCOC(=O)C1=C(COC(=O)CCc2ccccc2)NC(=O)NC1C (stereo unspecified),i,-5,-8,2.0,-9,-3,-0.9,0.64,-1.7
COC(=O)[C@@]1(Sc2ccc(C)cc2)CC(=O)N[C@@H]1c1ccccc1,i,·,·,·,-14,-12,3.2,·,-3.0
COc1ccc(/C=C2\SC(=S)N(c3cccnc3)C2=O)cc1,i,·,7,6.0,2,9,16,0.68,0.6
COc1ccc(C)cc1C(=O)C1CC(C(=O)O)C(C)(C)C1C (stereo unspecified),·,3,-19,5.3,·,·,·,0.7,4.0
O=C1N[C@H]2CC=C[C@H]2N(Cc2cccs2)c2ccccc21,i,·,4,-2.5,-7,-10,-0.3,0.72,-1.5
O=C(NCc1cccs1)c1csc2c1CCCCC2,i,3,3,2.0,4,2,-2.2,0.71,-0.1
O=C(CCCc1c[nH]c2ccccc12)NCc1ccccc1C(F)(F)F,i,-7,1,3.9,-15,-21,0.4,0.67,0.6
Cc1cc(C(=O)OC(C)C(=O)NC2CCCCC2)c(C)o1 (stereo unspecified),i,-2,5,2.2,8,3,0.8,0.69,-1.9
CSc1ccc(CN(C)C(=O)CNC(=O)c2ccc3c(c2)OCO3)cc1,i,1,1,·,-2,9,-3.0,·,1.1
NC(=O)c1ccc(NC(=O)CSc2nnc(-c3cccnc3)n2Cc2ccco2)cc1,i,97*,-12,3.7,2,-3,-7.7,0.73,-1.9
CC1CN(C(=O)CCC(=O)NC2CCCCC2)c2ccccc2S1 (stereo unspecified),i,-2,-10,5.2,-4,-3,-3.5,0.73,-1.1
# Next structures follow.
SMILES,FGF22 binding,ALR H2O2 inh,B2AR ag,UCH37 DUB inh,Ecoli rRNA inh,Ecoli rRNA inh OD600,Ecoli rRNA inh RFP,Ecoli growth,HNF4A DNA FP
Cc1ccc(C)c(S(=O)(=O)NCCC(=O)N2CCCC(C(N)=O)C2)c1 (stereo unspecified),i,-36,1,-3.2,18,5,8.3,0.66,-4.2
CC(C)CCC(=O)N1CCC(N2CCC(C(=O)NCc3ccccn3)CC2)CC1,i,1,6,-7.4,2,16,2.2,0.68,-4.3
COC(=O)/C(C#N)=C1/C=Cc2ccccc2N1,i,0,-9,4.2,0,-3,-2.6,0.71,3.6
CCN(CC)S(=O)(=O)c1ccc(N2CCOCC2)c(NC(=O)COc2ccc(Cl)cc2)c1,i,·,5,2.0,-13,-11,16,0.69,-3.2
COCCCN(C(=O)CSCC(=O)Nc1ccc(C)cc1)c1c(N)n(Cc2ccccc2)c(=O)[nH]c1=O,i,·,-23,-0.5,1,12,-2.7,0.67,1.8
CN(C(=O)c1ccc(NC(=O)Cc2cccc(NC(=O)C3CCN(C(=O)C4CC4)CC3)c2)cc1)C1CCCC1,i,2,-4,-0.7,5,-2,0.7,0.69,3.5
CCCCOc1cccc(C(=O)Nc2ccccc2N2CCCC2)c1,i,16,·,0.6,-22,-20,-3.0,0.68,-0.1
COC(=O)c1sccc1S(=O)(=O)NCc1ccc(S(N)(=O)=O)cc1,i,-19,-1,1.5,2,14,0.0,0.7,-2.0
Cc1ccc(NC(=O)CSc2ccc(C(N)=O)cc2[N+](=O)[O-])cc1C,i,-12,0,5.4,14,16,0.2,0.69,1.0
Cc1cccc(OC(C)C(=O)NCc2ccc(S(N)(=O)=O)cc2)c1 (stereo unspecified),i,·,-1,3.6,5,1,-3.7,0.7,-0.1
CCOc1cccc(-c2nn3c(-c4ccccn4)nnc3s2)c1,·,-2,-9,1.4,·,·,·,0.7,0.7
CCC(CC)C(=O)Nc1cc(Cl)ccc1C,·,-2,·,1.7,·,·,·,0.65,·
O=C(C1=C(O)C(=O)N(Cc2ccco2)C1c1cccc([N+](=O)[O-])c1)c1ccco1 (stereo unspecified),i,10,1,11,-8,-7,-3.0,0.69,-4.8
CC(=O)c1ccc(N(CC(=O)NC2CCCCC2)C(=O)CNC(=O)c2ccco2)cc1,·,-2,4,1.0,9,11,0.2,0.62,-1.3
Cc1ccc(S(=O)(=O)n2ccnc2)cc1C,i,-4,3,3.4,0,8,16,0.68,-2.2
